VACV Venus inh = vaccinia inhibition (Venus reporter) | AID 720580 | Potency, µM (series often up to 36.5 µM), for inactives: at the highest dose activity change, negative = inhibition, hits mostly inhibitors | 330,000 tested, 0.46% active | Vaccinia virus Venus reporter expression, fluorescence; active means well fitted inhibition curve with a large enough effect; inconclusive means small, poorly fitted or top-dose-only effect; inactive means no such curve, though single readings can be large or run the other way; tested in A549 cells; further: nearly all actives have a fitted effect of over 30% in size; inactives centre near -10
VACV mCherry inh = inhibitors of vaccinia virus infection (mCherry reporter signal). Vaccinia virus mCherry reporter infection, fluorescence; about a quarter of the inactives have no number. Potency, µM (series often up to 36.5 µM), without a hit: at the highest dose activity change, negative = inhibition, hits mostly inhibitors. 310,000 tested, 0.63% active; active = well fitted inhibition curve with a large enough effect; inconclusive = small, poorly fitted or top-dose-only effect; inactive = no such curve, though single readings can be large or run the other way; tested in A549 cells; further: nearly all actives have a fitted effect of over 35% in size; inactives centre near -10
Active calls of the source: *; i = inactive; ? = inconclusive; nt = no result given; [ ] = dose if it differs, or a comment. On the % scale 0 is the no-effect control and ±100 the full control effect; potency means the concentration at half of the fitted maximal effect.

SMILES | VACV Venus inh | VACV mCherry inh
O=C(Cn1ncc2c3ccccc3n(Cc3ccccc3F)c2c1=O)NCCc1ccc(Cl)cc1 | -22.9% | -12.1%
C[C@]12CC[C@@H]3c4ccc(O)cc4CC[C@H]3[C@@H]1C[C@@H](O)[C@@H]2O[C@@H]1O[C@H](C(=O)O)[C@@H](O)[C@H](O)[C@H]1O | -8.9% | i
O=C(OCC(=O)N1CCCc2ccccc21)c1cc(Cl)ccc1O | -1.5% | i
Cc1ccc(S(=O)(=O)N2CCN(C(=O)COc3ccc(Br)cc3)CC2)cc1 | -17.9% | -15.9%
Cc1ccc(-c2nc(N3CCOCC3)sc2C(=O)N2CCCCC2)cc1 | -6.3% | i
COc1cccc(CNC(=O)C(Cc2ccccc2)NS(=O)(=O)c2ccc3c(c2)CCN3C(C)=O)c1 (stereo not drawn) | -2.8% | -10.7%
N#Cc1ccc(N2CCNCC2)c(F)c1 | -15.3% | nt
CC(=O)Nc1ccc(/C=C(\C#N)C(=O)NC2CCCCC2C)cc1 (stereo not drawn) | -4.3% | i
CCC(C)C(=O)Nc1ccccc1N1CCN(c2ccc(F)cc2)CC1 (stereo not drawn) | -9.6% | i
CCC1CN(C(=O)NCc2ccc(F)cc2)c2cc(C)ccc2O1 (stereo not drawn) | -12.6% | -7.4%
CCOC(OCC)c1cc2ccccc2cn1 | 12.7% | -9.5%
COc1ccccc1-n1c(-c2ccc(NS(C)(=O)=O)cc2)n[nH]c1=S | -8.4% | -16.8%

An excerpt from above in order of length of the SMILES, smallest number first.
SMILES | VACV Venus inh | VACV mCherry inh
CCOC(OCC)c1cc2ccccc2cn1 | 12.7% | -9.5%
N#Cc1ccc(N2CCNCC2)c(F)c1 | -15.3% | nt
CCC1CN(C(=O)NCc2ccc(F)cc2)c2cc(C)ccc2O1 (stereo not drawn) | -12.6% | -7.4%
Cc1ccc(-c2nc(N3CCOCC3)sc2C(=O)N2CCCCC2)cc1 | -6.3% | i
Cc1ccc(S(=O)(=O)N2CCN(C(=O)COc3ccc(Br)cc3)CC2)cc1 | -17.9% | -15.9%

New compounds follow.
SMILES | VACV Venus inh | VACV mCherry inh
O=C1CC(N2CCN(Cc3ccccc3)CC2)C(=O)N1c1ccc2c(c1)OCCO2 (stereo not drawn) | -10.5% | i
Nc1cc(N2CCCCC2)c([N+](=O)[O-])cc1Cl | -2.8% | -2.4%
CC1Cc2ccccc2N1S(=O)(=O)c1cccc(C(=O)NCCCO)c1 (stereo not drawn) | -23.5% | -17.1%
CC1=NC(=O)C(N=Nc2ccccc2)N1c1ccccc1 (stereo not drawn) | 1.3% | nt
CC(C)CN1CCN(Cc2c(F)cccc2Cl)CC1CCO (stereo not drawn) | -4.9% | i
Cc1c(NS(=O)(=O)c2ccc([N+](=O)[O-])cc2)c(=O)n(-c2ccccc2)n1C | -2.0% | -9.4%
CC(C)(C)c1ccccc1NC(=O)CN1C(=O)NC2(CCCCCC2)C1=O | -15.3% | -3.7%
O=C(NOC(=O)c1ccccc1)c1ccccc1 | -20.9% | -4.0%
O=C(CN1CCCC1)Nc1nc(-c2ccc3c(c2)CCN3C(=O)c2ccccc2F)cs1 | -10.2% | ?
Cc1ccc(C(C(=O)NC2CCCC2)N(Cc2ccco2)C(=O)CCC(=O)Nc2ccccn2)cc1 (stereo not drawn) | ? | nt
CC(NS(=O)(=O)c1ccccc1)C1COc2ccccc2O1 (stereo not drawn) | -1.5% | nt
O=c1[nH]c(=O)n(Cc2ccco2)c(O)c1C=NC1CC1 | 1.0% | -7.9%
O=C(NCC1CCCCC1)c1cc(Br)ccc1Cl | -26.5% | i
CC1=NN(c2nc(-c3ccc(C#N)cc3)cs2)C(=O)C1 | -8.6% | -1.3%
CC1CCc2c(sc(NC(=O)c3ccc(Cl)cc3Cl)c2C#N)C1 (stereo not drawn) | -14.5% | -19.2%
O=C(CCc1ccccc1)Nc1cc(S(=O)(=O)N2CCOCC2)ccc1N1CCCC1 | -12.8% | -16.7%
Cc1cc(F)ccc1-c1cc(C(=O)NCc2cccs2)[nH]n1 | -2.9% | i
C[C@]12C(=O)N(c3ccc(F)cc3)C(=O)N1[C@@H]1c3ccccc3OC[C@@H]1[C@H]2c1ccccc1 | -15.0% | -28.4%
CNC(=S)Nc1cc(Cl)ccc1Oc1ccccc1 | -19.8% | -13.3%
COc1cc(CC(=O)NCc2cccs2)cc(OC)c1OC | -9.3% | nt
CC(=O)c1cccc(NC(=O)Nc2c(C)n(C)n(-c3ccccc3)c2=O)c1 | -0.5% | -6.2%
COc1ccc(C2=NN(C(=O)CCC(=O)O)C(c3cccs3)C2)cc1 (stereo not drawn) | -3.0% | 0.7%
COc1ccc2ccccc2c1C1CC(=O)N2CN(C3CCCCC3)CSC2=C1C#N (stereo not drawn) | -14.5% | -6.8%
Cc1nc(Cl)c(C(=O)Nc2cccc(F)c2)c(C)c1Cl | -11.5% | -11.8%
COc1ccc(NC(=O)c2sc3nc(N4CCOCC4)c4c(c3c2N)CC(C)(C)OC4)c(OC)c1 | -4.9% | -8.4%
O=C(CSc1nnnn1Cc1ccccc1)c1ccccc1 | -8.3% | -14.1%
COc1ccc(NC(=O)CSc2ccc(F)cc2)cc1S(=O)(=O)N1CCCCC1 | -27.2% | ?
Cc1nn(C)c(Oc2ccc(Cl)cc2)c1C(=O)O | -7.5% | -21.2%
OCC[C@@H]1C[C@@H](O)[C@H](O)[C@@]2(Cc3ccccc3CCO2)O1 | -3.2% | -14.9%
CCOC(=O)Cc1ncccc1C(=O)Nc1ccc(Oc2ccccc2)cc1 | -10.0% | -6.3%
N=c1c(C(=O)NCCc2ccccc2)cc2c(=O)n3ccccc3nc2n1CCCN1CCOCC1 | 2.2% | -19.1%
CC(C)(C)c1ccc(OCC(=O)N/N=C/c2cc(Br)ccc2OC(=O)c2ccco2)cc1 | -1.7% | -17.1%
CC1CCN(C(=O)CN2C(=O)NC3(CCCCCC3)C2=O)CC1 | -17.0% | i
CCOc1ccccc1CNC(=O)c1cccn1-c1nnc(N2CCCC2)s1 | -15.7% | -8.9%
Cc1ccc(Cc2c(-c3ccc(C)cc3)nc3ccc(Cl)cn23)cc1 | -9.0% | i
COc1ccccc1N1CCN(C(=O)c2cc3cc(F)ccc3[nH]2)CC1 | -15.7% | -4.2%
CC(C)C(=O)N1CCCC1(C)C(=O)Nc1ccc(-n2cccc2)cc1 (stereo not drawn) | 6.7% | 33.5%[activator]
O=C(CSc1nnc2ccccn12)NCCc1ccc(Cl)cc1 | 0.9% | -2.7%
Cc1ccc(C(=O)Nc2c(-c3cccs3)c(=O)c3ccccc3n2C)cc1 | -13.7% | i
COC(=O)c1ccc(C2C3=C(Nc4nnnn42)c2ccccc2OC3)cc1 (stereo not drawn) | -8.3% | -5.2%
C/C(N)=C(/C#N)C(=O)COC(=O)CNS(=O)(=O)c1ccc(F)c(F)c1F | -4.2% | i
COc1ccc(-c2cc3c(=O)n(CC(=O)N4CCN(C)CC4)ncn3n2)cc1 | 0.9% | 3.7%
CCCn1c(SCC(=O)NC2CCCCC2)nnc1-c1ccncc1 | -9.6% | -0.7%
CC1(C)OC(C)(C)/C(=C/Nc2ccc(O)cc2)C1=O | 0.3% | -8.2%
CCC1OC(=O)C(C)[C@@H](O[C@H]2C[C@@](C)(OC)C(O)C(C)O2)C(C)[C@@H](O[C@@H]2OC(C)CC(N(C)C)C2O)[C@@](C)(O)CC(C)C2NC(COCCOC)O[C@H](C2C)[C@@]1(C)O (stereo partly drawn) | -1.0% | -14.5%
Cc1cc(S(=O)(=O)NCC(c2ccc(N(C)C)cc2)N2CCOCC2)ccc1F (stereo not drawn) | -0.7% | -10.4%
CCOc1ccc(C2=NC(c3ccc(OC)cc3)=Nc3ccc(Cl)cc3N2)cc1 | -17.9% | -15.6%
CNc1cncc(-c2ccc(CN(C)C)cc2)n1 | -11.9% | i
O=C(Nc1nnc(C2CC2)o1)c1ccc(S(=O)(=O)N2CCCCC2)cc1 | -3.5% | ?
COc1ccc(-c2csc(NC(=O)C3CC(=O)N(Cc4ccco4)C3)n2)cc1 (stereo not drawn) | -12.0% | -23.4%
COc1ccc(C(NC(=O)c2ccco2)c2ccc(OC)c(OC)c2)cc1OC | -1.8% | -13.2%
O=C(CSc1nc2c([nH]c3ccccc32)c(=O)n1-c1ccccc1)Nc1ccc2c(c1)OCCO2 | -14.2% | -14.7%
COC(=O)c1c(-c2ccc(S(C)(=O)=O)cc2)sc2ccc(OC)cc12 | -18.8% | i
Nc1nnc(SCC(=O)OCC(=O)Nc2ccc(Br)cc2F)s1 | -10.2% | -13.6%
O=C1OCCN1C(=O)[C@H]1[C@H](c2ccc(F)cc2)C(c2ccc(F)cc2)=NN1c1ccc(Br)cc1 | -27.9% | ?
COC(=O)c1ccc(NS(=O)(=O)c2ccc3[nH]c4c(c3c2)CCCC4)cc1 | -14.8% | -12.9%
CC(Sc1ccccc1)C(=O)N/N=C/c1cccnc1 (stereo not drawn) | 1.0% | 3.1%
CC(C)Cn1c(-c2csc3ccccc23)n[nH]c1=S | -15.2% | -18.5%
COc1ccc(NC(=O)c2ncn(-c3ccccc3)n2)cc1Cl | -0.3%[7.34 µM] | -6.8%[7.34 µM]
CCN(CC)S(=O)(=O)c1cc(NC(=O)NCCCl)ccc1C | -12.2% | -8.2%
Additional results:
SMILES | VACV Venus inh | VACV mCherry inh
COC(=O)[C@]12CCCCC=C1N(Cc1ccc3c(c1)OCO3)C(=O)[C@H](CC(=O)NCc1ccc(C)o1)C2 | -11.8% | -27.6%
COc1ccc(NC(=O)CN(C)C(=O)c2c(-c3ccccc3Cl)noc2C)cc1 | -16.6% | -4.9%
COc1ccc(/C(C)=N/Nc2ccc(F)cc2F)c(O)c1 | -11.4% | -2.7%
O=C(O)CNC(=O)c1ccc(Sc2ccccc2)c([N+](=O)[O-])c1 | -0.7% | 7.1%
N#CC1=C(N)Nc2nc3ccccc3n2C1c1ccc(F)cc1 (stereo not drawn) | -25.8% | -21.4%
COC(=O)Nc1ccc(S(=O)(=O)N2CCC(C(=O)N(C)C3CCCCC3)CC2)cc1 | -4.8% | -28.8%
COc1ccc(-c2nnc(Nc3ccc(OCC(N)=O)cc3)c3ccccc23)cc1 | -16.3% | -27.0%
CCn1c(CN2CCOCC2)nnc1SCC(=O)Nc1ccccc1Cl | -2.4% | 2.9%
CCOC(=O)/C(=C\C=C1/Sc2cc(OCC)c(OCC)cc2N1CC)C(C)=O | 139.1%[activator] | -12.3%
COC(=O)c1sccc1S(=O)(=O)N1CCN(c2ccccc2)CC1 | 1.3% | 9.4%
CCOC(=O)C(C(=O)OCC)C(C)C#CCN1CCCCC1 (stereo not drawn) | -17.5% | nt
COc1ccc2cc3cc(C(=O)Nc4cc(C)c(Cl)cc4OC)oc3nc2c1 | 8.0% | 13.4%
Cc1ccc(C)c(N2CCN(C(=O)c3cc(S(=O)(=O)N4CCC(C)CC4)cn3C)CC2)c1 | -28.7% | i
CCN1C(=O)CC(C(=O)Nc2ccc(F)cc2)SC1=Nc1ccc2c(c1)OCO2 (stereo not drawn) | -23.3% | nt
O=C(CCCSc1nnc(Nc2ccccc2F)s1)N1CCOCC1 | -16.1% | i
CCCN(CC(=O)Nc1ccccc1OC)C(=O)C1CCCC1 | -12.3% | -17.3%
O=C(Nc1ccncc1)C1CC(=O)N(c2ccc(F)cc2)C1 (stereo not drawn) | 19.6% | -9.5%
Cc1cnc(C2OCCO2)c2cccc([N+](=O)[O-])c12 | -19.3% | -4.9%
O=Cc1c(Nc2cccc(C(F)(F)F)c2)nc2ccccn2c1=O | -8.5% | -6.9%
O=C(COC(=O)/C=C/c1ccc(S(=O)(=O)N2CCOCC2)cc1)NCc1ccccc1 | -9.7% | -5.7%
Clc1ccc2c(c1)CCc1cccnc1C2=C1CCNCC1 | -19.0% | -15.8%
CCOc1cc(/C=N/NC(=O)C(C)Sc2ccccn2)ccc1O (stereo not drawn) | -17.7% | i
COc1ccc(OC)c(C(=O)COC(=O)C(CCSC)NC(=O)COc2ccccc2)c1 (stereo not drawn) | -1.7% | i
CCN1CCN(c2ncc3c(n2)CCN(Cc2ccccc2C)C3)CC1 | -16.3% | -16.3%

An excerpt of these results, as a markdown table:
| Molecule | VACV Venus inh | VACV mCherry inh |
| --- | --- | --- |
| CCN1C(=O)CC(C(=O)Nc2ccc(F)cc2)SC1=Nc1ccc2c(c1)OCO2 (stereo not drawn) | -23.3% | nt |
| O=C(CCCSc1nnc(Nc2ccccc2F)s1)N1CCOCC1 | -16.1% | i |
| CCCN(CC(=O)Nc1ccccc1OC)C(=O)C1CCCC1 | -12.3% | -17.3% |
| O=C(Nc1ccncc1)C1CC(=O)N(c2ccc(F)cc2)C1 (stereo not drawn) | 19.6% | -9.5% |
| Cc1cnc(C2OCCO2)c2cccc([N+](=O)[O-])c12 | -19.3% | -4.9% |
| O=Cc1c(Nc2cccc(C(F)(F)F)c2)nc2ccccn2c1=O | -8.5% | -6.9% |
| O=C(COC(=O)/C=C/c1ccc(S(=O)(=O)N2CCOCC2)cc1)NCc1ccccc1 | -9.7% | -5.7% |

(further entries)
SMILES | VACV Venus inh | VACV mCherry inh
O=[N+]([O-])c1nn(-c2ccc3c(c2)OCCO3)n(O)c1=NCc1ccc(F)cc1 | -13.5% | -23.4%
Cc1cccc(N2CCN(C(=O)CN(C)S(=O)(=O)c3ccc4c(c3)CCC(=O)N4)CC2)c1C | -14.1% | i
Cc1cc(OCCOCCN(C)C)ccc1Cl | -8.8% | -0.3%
CCCN=C1N(C)C[C@@H]2[C@@H]3C(=O)N(C)C(=O)[C@@H]3[C@](CC)(C(=O)OC)N12 | -0.4% | -4.8%
Cc1ccc(-n2c(Cc3noc4ccccc34)n[nH]c2=S)cc1 | -1.6% | -13.3%
